From PubChem
HTT prom inh: inhibits huntingtin promoter activity; HEK293 HTT promoter firefly luciferase reporter (activity 0% = vehicle and -100% = no light), 24 h; Potency, µM (top dose mostly 57.5 µM), inactives show at the highest dose activity change, negative = inhibition, most hits filed as inhibitors; 0.93% of 48,000 active; AID 1508623; active = well fitted inhibition curve with a large enough effect; inconclusive = small, poorly fitted or top-dose-only effect; inactive = no such curve, though single readings can be large or run the other way; also: nearly all actives have a fitted effect of over 50% in size
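HEK293 Fluc reporter, 2,500 cells/well, 24 h pre-culture; cpds up to 57.5 uM final, 24 h 37 degrees C; Dual-Glo, 10 min RT; normalized vehicle = 0%, zero RLU = -100%.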
PMP22 txn prim: modulates PMP22 transcription in S16 Schwann cells; S16 Pmp22-F2sN Schwann cells (luciferase reporters placed in the Pmp22 gene), FLuc/NLuc coincidence luminescence, 24 h; Potency, µM (series often up to 57.5 µM), inactives show at the highest dose activity change, negative = inhibition, hits mostly inhibitors; 2% of 43,000 active; active = clear falling dose curves in both reporters; inconclusive = both reporters move, but less clearly or upward; inactive = either reporter flat; the % is the NLuc reporter signal; also: % is scaled to controls: 0 for no effect and ±100 for the full control effect; some results filed as inactive show a strong effect at the top dose
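S16(c9) Schwann cells with FLuc/NLuc coincidence reporter in the Pmp22 3' UTR; compounds pin-transferred, 24 h at 37C. Dual-luciferase read: FLuc first, then NLuc after Stop&Glo, each 10 min at room temperature.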
* marks the source's active call; other numbers are inactive results; ? = inconclusive; · = not tested or not shown; & = joins results of further samples; [ ] = dose if it differs, or a comment. Potency is read from the fitted curve at half-maximal effect.

SMILES | HTT prom inh | PMP22 txn prim
COc1cccc(NC2=CC(c3ccc(C(C)C)cc3)N(c3cccc(OC)c3)C2=O)c1 (centres undefined) | 29.0% | 5.4%
O=C(COc1ccccc1F)Nc1ccc2nc(SCC(=O)N3CCc4ccccc43)sc2c1 | ? | ?
CCOc1ccc(NC(=O)N2CCN(c3nnc(C)c4c(C)n(-c5ccccc5)nc34)CC2)cc1 | -2.2% | ?
CCCCOc1cccc(C(=O)Nc2cc(NC(=O)c3ccco3)ccc2OC)c1 | -25.5% | ?
COC(=O)c1ccc(C(=O)OC)c(NC(=O)c2cnn3c(C(F)F)cc(-c4ccccc4)nc23)c1 | -2.6% | 11.1%
N=c1n(CCN2CCCCC2)c2ccccc2n1CC(O)COc1ccc(Cl)cc1Cl (centres undefined) | ? | 11.9µM*
CCOC(=O)c1nnn(CC(=O)NC(=O)Nc2cccc(CC)c2)c1C(=O)OCC | ? | -12.8%
COc1ccc2c(c1)CCc1c(C(=O)Nc3c(C)nn(Cc4c(Cl)cccc4Cl)c3C)noc1-2 | ? | ?
COc1ccc(-c2cc(C(F)(F)F)nc(SCCC(=O)Nc3ccc(NC(C)=O)cc3)n2)cc1 | ? | ?
O=S(=O)(Nc1cccc(-c2ccc(N3CCCCC3)nn2)c1)c1ccc(F)cc1F | -5.8% | -2.4%
Cc1ccc(NC(=O)Cn2c(-c3cncs3)nc3ccccc32)cc1Br | ? | 0.2%
CCc1nn(CC(=O)N2CCN(c3cccc(C)c3C)CC2)c(=O)c2cc3sccc3n12 | -5.7% | 2.6%
CCOc1ccccc1NC(=O)CN1C(=O)C2(SCC(=O)N2c2ccc(C)cc2)c2ccccc21 (centres undefined) | -25.2% | ?
CC(=O)N1CCCc2cc(S(=O)(=O)N(CCN(C)C)Cc3ccccc3)ccc21 | -15.7% | -28.2%
CCOc1ccc(-c2cc(-c3nc(-c4cc(OC)c(OC)c(OC)c4)no3)[nH]n2)cc1 | -26.1% | -65.3%
Cc1ccc(CSc2ncc(Cl)c(C(=O)Oc3ccccc3F)n2)cc1 | 31.8%[activator] | -28.6%
CCOc1ccc(-n2c(-c3ccc(OC)cc3)cc3c2CC(C)(C)CC3=O)cc1 | -33.7% | ?
COc1ccc(CC(C)NS(=O)(=O)c2ccc3c(c2)CCN3S(C)(=O)=O)cc1OC (centres undefined) | ? | -24.0%
Cc1cccc(Cn2c(Cc3ccccc3)nc3ccccc32)c1 | -20.2% | -3.1%
COc1ccc(-c2nnc(SCC(=O)NCCc3ccc(OC)c(OC)c3)nc2-c2ccc(OC)cc2)cc1 | ? | -16.4%

Three compounds from above, ordered by molar mass, descending.
SMILES | HTT prom inh | PMP22 txn prim
Cc1ccc(NC(=O)Cn2c(-c3cncs3)nc3ccccc32)cc1Br | ? | 0.2%
CCCCOc1cccc(C(=O)Nc2cc(NC(=O)c3ccco3)ccc2OC)c1 | -25.5% | ?
Cc1cccc(Cn2c(Cc3ccccc3)nc3ccccc32)c1 | -20.2% | -3.1%

Additional compounds:
SMILES | HTT prom inh | PMP22 txn prim
Cc1ccsc1CCN1C(=O)N(c2ccccc2)C(=O)C1CC(=O)Nc1ccc(Cl)cc1 (centres undefined) | ? | ?
Cn1c(=O)c2c(nc(CN3CCN(c4ccccc4F)CC3)n2Cc2ccc(F)cc2)n(C)c1=O | -32.5% | ?
CCOc1ccc(CC(=O)NCC(c2cccs2)S(=O)(=O)c2ccc(F)c(C)c2)cc1 (centres undefined) | -7.4% | 12.0%
CCc1ccc(CNC(=O)C2CCN(c3nc4ccccc4nc3C(F)(F)F)CC2)cc1 | -4.6% | 5.0%
C#C[C@]1(O)CC[C@H]2[C@@H]3CCc4cc(OC5CCCC5)ccc4[C@H]3CC[C@@]21C | 2.9% | ·
O=C(NCCc1ccc(Cl)cc1)c1ccc(Cn2c(=O)c3cccn3c3cccnc32)cc1 | -30.2% | ?
COc1ccc(-n2c(SCc3nc(-c4ccc(C)cc4)no3)nnc2-c2ccncc2)cc1 | -28.1% | ?
CCC1CCC(C(=O)NC(C(=O)NCCN(CC(C)C)CC(C)C)C(C)C)CC1 (centres undefined) | -1.0% | -9.4%
CCN(C(=O)C1CCC(CNS(=O)(=O)c2cccc3nsnc23)CC1)c1ccc(C)c(C)c1 (centres undefined) | ? | ?
COc1ccccc1Nc1ncnc2c1nc1n2CCCCC1 | -0.5% | 1.3%
COc1ccc(CC(=O)NC2CC(=O)N(c3ccc(C)c(C)c3)C2)cc1OC (centres undefined) | -23.7% | 5.2%
O=c1cc(-c2ccccc2)nc2cc(-c3ccc(F)cc3)[nH]n12 | 6.0% | -9.1%
CCC(C)Sc1oc(-c2ccco2)nc1S(=O)(=O)c1ccc(C)cc1 (centres undefined) | -30.5% | ?
COc1ccccc1CNC(=O)c1ccc2nc(N3CCCCC3)sc2c1 | ? | 1.5%
CSC1=NC2(CCN(C(=O)NC3CCCCC3)CC2)N=C1c1ccc(C)c(C)c1 | -20.4%[11.5 µM] | 3.5%
COc1cccc(CSc2nc3cc(OC)c(OC)cc3c3nc(CCn4nc(C)cc4C)nn23)c1 | -3.1% | 11.9%
Cc1ccccc1NC(=O)c1ccc(F)c(S(=O)(=O)N2CCN(c3ccccc3F)CC2)c1 | ? | -6.1%
Cc1ccc(OCC(=O)Nc2cccc(-c3nc4ccccc4s3)c2)cc1 | 84.2%[activator] | -3.7%
CCOc1ccc(NC(=O)N2CCC(CN3CCCCCC3)CC2)cc1 | -20.2% | ?
COc1ccc(C(=O)c2cn(Cc3ccc(C)cc3)c3cc4c(cc3c2=O)OCO4)cc1 | -28.1% | ?
CCc1ccccc1NC(=O)Cn1c(=O)nc(-c2ccccc2)c2ccccc21 | -3.1% | 18.0%
CC(C)c1cnc2c(c1SCC(=O)N1CCCCC1)c(=O)n(C)c(=O)n2C | -10.0% | -34.1%
CC(C)c1ccc(NC(=O)CN2C(=O)CSc3ccc(S(=O)(=O)N4CCCC4)cc32)cc1 | -17.6% | -16.6%
CCOc1ccc(-n2c(=O)c3c(C)c(C)sc3n(CC(=O)N3CCC(C)CC3)c2=O)cc1 | -4.6% | ?
COc1ccc(NC(=O)CSc2nccn2Cc2ccco2)c(OC)c1 | 24.7% | 6.9%
O=c1c2ccccc2n2c(-c3ccccc3F)nnc2n1CCc1ccccc1 | -22.5% | -118.8%
Cc1nc(-c2ccc(Cl)cc2)sc1CCNC(=O)c1cccs1 | -35.3% | ?
Cc1cc2c(cc1S(=O)(=O)NCc1ccccc1Cl)OCC(=O)N2 | -25.7% | 12.4%
CCCN1C(=O)c2[nH]nc(-c3ccccc3O)c2C1c1ccc(OCc2ccccc2)c(OCC)c1 (centres undefined) | ? | ?
COc1ccc(C2C(=O)N(C3CCCCC3)CC(=O)N2Cc2ccccc2Cl)cc1OC (centres undefined) | 3.6% | -4.8%
COc1ccc(Nc2nc(Nc3ccc(OC)cc3OC)nc(N3CCOCC3)n2)c(OC)c1 | ? | -14.4%
COc1ccc(-c2cn3c(n2)sc2cc(C(=O)NC4CCCc5ccccc54)ccc23)cc1 (centres undefined) | -9.3% | ?
COc1cc(C(CC(=O)NCc2ccc(F)cc2)N2Cc3ccccc3C2=O)cc(OC)c1OC (centres undefined) | -5.6% | -12.0%
CCN(c1ccccc1)C(CNS(=O)(=O)c1ccccc1)c1ccccc1 (centres undefined) | ? | ?
Cc1ccc(-n2c(=O)c3c(cnn3C)n(Cc3ccc(Cl)cc3)c2=O)cc1 | -13.9% | 5.4%
CCOC(=O)c1c(-c2ccccc2)csc1NC(=O)c1cc(-c2ccc(Cl)cc2)on1 | -3.6% | -5.0%
Cc1cc2nn(-c3ccccc3)nc2cc1NC(=O)c1cccc2c(Cl)cccc12 | 6.8% | -19.2%
CCOC(=O)C1(C)C=C(Nc2cccc(C(=O)O)c2)C(=O)N1c1cccc(C(=O)O)c1 (centres undefined) | 4.9% | -8.4%
CC(C)(C)C(O)/C=C/c1ccc2c(c1)OCO2 (centres undefined) | 6.8% | ·
CCOC(=O)N1CCc2c(sc3c2c(=O)n(-c2ccc(F)cc2)c(=O)n3CC(=O)c2ccc(Cl)cc2)C1 | -9.4% | ?

Reformatted with each value named: two of the compounds above.
> CCOC(=O)c1c(-c2ccccc2)csc1NC(=O)c1cc(-c2ccc(Cl)cc2)on1
  HTT prom inh: -3.6%
  PMP22 txn prim: -5.0%

> Cc1cc2nn(-c3ccccc3)nc2cc1NC(=O)c1cccc2c(Cl)cccc12
  HTT prom inh: 6.8%
  PMP22 txn prim: -19.2%

The main list resumes; the 7 compounds before the break are reprinted first.
SMILES | HTT prom inh | PMP22 txn prim
CCN(c1ccccc1)C(CNS(=O)(=O)c1ccccc1)c1ccccc1 (centres undefined) | ? | ?
Cc1ccc(-n2c(=O)c3c(cnn3C)n(Cc3ccc(Cl)cc3)c2=O)cc1 | -13.9% | 5.4%
CCOC(=O)c1c(-c2ccccc2)csc1NC(=O)c1cc(-c2ccc(Cl)cc2)on1 | -3.6% | -5.0%
Cc1cc2nn(-c3ccccc3)nc2cc1NC(=O)c1cccc2c(Cl)cccc12 | 6.8% | -19.2%
CCOC(=O)C1(C)C=C(Nc2cccc(C(=O)O)c2)C(=O)N1c1cccc(C(=O)O)c1 (centres undefined) | 4.9% | -8.4%
CC(C)(C)C(O)/C=C/c1ccc2c(c1)OCO2 (centres undefined) | 6.8% | ·
CCOC(=O)N1CCc2c(sc3c2c(=O)n(-c2ccc(F)cc2)c(=O)n3CC(=O)c2ccc(Cl)cc2)C1 | -9.4% | ?
COc1ccc(CNC(=O)Cn2c(=O)nc(-c3ccccc3)c3cc(Cl)ccc32)cc1OC | -4.8% | -8.8%
CCOC(=O)c1cnc(N2CCN(c3ccc(OC)cc3)CC2)c2ccccc12 | ? | ?
CNC(=O)C1CCC(Cn2c(=O)c3sccc3n(CC(=O)NCc3cccc(OC)c3)c2=O)CC1 (centres undefined) | -14.3% | 6.6%
Cc1ccc(NC(=O)CN2C(=O)CCSc3ccccc32)c(C)c1 | -10.0% | -38.1%
O=C(CSc1nccn1Cc1ccco1)Nc1cccc(F)c1 | 10.2% | -12.6%
COc1ccc(-c2nnc(SCC(=O)Nc3cc(OC)ccc3OC)nc2-c2ccc(OC)cc2)cc1 | -9.5% | 3.4%
O=C(NCc1nc2ccccc2[nH]1)c1c(F)cccc1F | -3.8% | -2.4%
Cc1nn2c(C)c(C(=O)NCc3ccc(OC(C)C)cc3)cnc2c1-c1ccc(F)cc1 | -18.3% | -3.1%
Cc1ccc(OCC(=O)Nc2c(C(=O)c3ccccc3)oc3ccccc23)cc1C | 10.2% | 10.4%
COc1cc(C(C)=O)ccc1OCCCN1CCC(c2noc3cc(F)ccc23)CC1 | -3.0%&4.2% | ·
CC(C)Sc1nc2sc3c(c2c(=O)n1Cc1ccccc1)CCCC3 | 5.6% | 16.1%
O=C(NCc1ccc2c(c1)OCO2)c1ccc2c(c1)N(Cc1ccccc1F)C(=O)c1ccccc1S2 | -4.2% | -2.6%
CCOc1ccccc1C(=O)NCC(c1ccc(N(C)C)cc1)N1CCc2ccccc21 (centres undefined) | -28.6% | ?
CCC(C)[C@H](N)c1nnc(SCc2ccc(Cl)c(Cl)c2)o1 (some centres undefined) | ? | ?
CCOC(=O)c1cccc(Nc2cc(-c3ccccc3)ncn2)c1 | ? | ?
CCn1c(=O)c2cc(C(=O)NCCc3cc(OC)ccc3OC)sc2c2ccccc21 | -7.2% | -26.5%
CC(C)(C)OC(=O)N1CCC(c2c(C(=O)NCCN3CCCC3)cnn2-c2ccc(Cl)cc2)CC1 | -3.8% | ?
CN(Cc1ccco1)C(=O)c1ccc2c(c1)N(Cc1ccccc1F)C(=O)c1ccccc1S2 | -24.0% | 5.8%
O=C(Nc1cc(-c2nc3cc(Cl)ccc3o2)ccc1Cl)c1cccs1 | -6.7% | -26.2%
Cc1nn(CCCC(=O)Nc2ccccc2C(F)(F)F)c(=O)c2c1sc1ccccc12 | -4.0% | -2.0%
NS(=O)(=O)c1ccc(NC(=O)c2cc(-c3cccs3)nc3ccccc23)cc1 | ? | -40.7%
O=S(=O)(NCC(c1ccco1)N1CCOCC1)c1ccc(F)cc1 (centres undefined) | -3.1% | -8.2%
Cc1ccc(-n2nc(C)c3c(C(F)(F)F)cc(-c4cccnc4)nc32)cc1Cl | -6.3% | 9.6%
COc1ccc(CNCCCSc2nnnn2C)c(OC)c1 | -4.3% | 16.4%
COc1ccc(CCCc2nnc(SCC(=O)Nc3ccc(C)cc3)o2)cc1C | -17.6% | 0.1%
CCc1cccc(-n2nnc(S(=O)(=O)c3ccc(OC)cc3)c2C)c1 | ? | ?
Cn1ncc2c(Nc3cccc(F)c3)ncnc21 | -25.5% | -25.6%
CCOc1ccc2c(c1)c(=O)c(C(=O)c1ccc(CC)cc1)cn2CC(=O)Nc1cccc(Cl)c1 | -16.0% | ?
